PABP polyA inh: blocks human PABP binding to poly(A) RNA. 290,000 tested, 1% active. P11940. inhibition, % at 35 µM. fluorescence polarization;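 active = 50% or more with normal probe brightness, or confirmed in later tests; about a fifth of its hits are not listed in these tables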;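 note: calls also rest on retests at 20 µM and on dose response follow-up; controls were probe without protein and protein plus probe with vehicle; some compounds called inactive have numbers as strong as hits; many hits fall short of the cut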
Target sequence (P11940 whole entry, looked up): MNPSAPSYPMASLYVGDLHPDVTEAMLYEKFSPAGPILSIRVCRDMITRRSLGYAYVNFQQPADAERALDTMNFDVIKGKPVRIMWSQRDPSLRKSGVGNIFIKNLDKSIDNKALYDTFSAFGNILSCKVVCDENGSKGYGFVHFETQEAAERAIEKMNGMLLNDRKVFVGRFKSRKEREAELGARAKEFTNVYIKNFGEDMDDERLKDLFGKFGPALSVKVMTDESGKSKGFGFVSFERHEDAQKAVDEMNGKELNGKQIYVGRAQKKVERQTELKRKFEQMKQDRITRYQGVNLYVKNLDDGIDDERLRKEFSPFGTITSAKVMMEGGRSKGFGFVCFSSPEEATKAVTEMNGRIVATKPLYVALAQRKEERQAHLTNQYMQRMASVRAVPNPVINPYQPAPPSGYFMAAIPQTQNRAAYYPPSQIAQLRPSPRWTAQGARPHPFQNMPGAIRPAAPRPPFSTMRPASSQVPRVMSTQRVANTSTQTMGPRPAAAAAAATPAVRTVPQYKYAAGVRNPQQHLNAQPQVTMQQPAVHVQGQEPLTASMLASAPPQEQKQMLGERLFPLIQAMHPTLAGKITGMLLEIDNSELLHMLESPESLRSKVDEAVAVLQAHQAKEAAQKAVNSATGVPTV
UUG fidelity: yeast start codon fidelity modulation; S. cerevisiae UUG-firefly luciferase reporter, luminescence/redox ratio; activity score, % at 18.7 µM; 350,000 tested, 0.13% active; AID 602363;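 active = replicate mean at a twofold rise or more, about +100% in these data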;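 note: firefly luciferase made from a UUG start codon reports start codon fidelity; reporter light over untreated wells divided by growth signal over untreated wells; some hits fall short of that in this replicate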
eIF4H inh: inhibitors of RNA binding by human eIF4H; Q15056; eIF4H fluorescence polarization binding assay; inhibition, % at 35 µM; 290,000 tested, 0.94% active;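 active = 50% or more with normal probe brightness, or confirmed in later tests; about a fifth of its hits are not listed in these tables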;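 note: calls also rest on retests at 20 µM and on dose response follow-up; 0% = protein and probe with vehicle and 100% = probe without protein; strong numbers were not always called active; many hits fall short of the cut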
CSC inhib: blocks cancer stem cells; 300,000 tested, 1.1% active; AID 2717; inhibition, % at 7.5 µM; cancer stem cell-like cells viability, luminescence;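 active = mean at 75% or more and at least half the replicates too; tested in HMLE shEcad cells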;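 note: 0% = median of negative and 100% = median of positive control wells; the first replicate is given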
Rce1 inh: inhibitors of yeast Ras-converting enzyme; Q03530; calls only; 290,000 tested, 0.27% active; yeast membranes, quenched prenylated peptide cleavage fluorescence;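 active = fall in fluorescence gain of 50% or more versus controls, with final raw signal at or below 3038400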;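 note: plate controls were neutral control wells for no effect and wells lacking membranes for full effect; tested at 10 µM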
MT1-MMP act inh: inhibitors of human MT1-MMP activation. P50281. HT1080 RFP-PRO-GFP cells, GFP/RFP ratio fluorescence, overnight; percent of plate control window, DMSO zero. GFP/RFP ratio change, % at 20 µM. 360,000 tested, 0.061% active;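 active = GFP/RFP ratio change of at least 30% with cell ATP level not reduced by more than half and red fluorescence within 50% of control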; note: strong numbers were not always called active
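Material – HT1080 RFP-PRO-GFP cells · Control set – DMSO wells and RFP-L50D-GFP cells · Incubation – overnight cell settling, then overnight compound exposure, 37 °C, 5% CO2 · Compound dosing – single-point 20 µM compound, 1% DMSO · Read-out – GFP/RFP fluorescence ratio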
HIV Env fusion: blocks HIV Env-driven cell-cell fusion; HeLa-JRFL Env/CEM21 cell fusion, luciferase; inhibition, % at 12.3 µM; 360,000 tested, 1.1% active; AID 651610;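 active = mean replicate inhibition score of at least 50 and every replicate individually at or above 50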;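 note: 0% = plate neutral controls and 100% = maraviroc near 300 nM; one replicate is shown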
eIF4H inh retest: also measured in eIF4H inh; calls as there; inhibition, %; compound at 20 µM; confirmation average;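 mean of two retest wells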
PABP polyA inh retest: second read-out of PABP polyA inh, no call of its own (marks repeat the call); inhibition, %; compound at 20 µM; confirmation repeats;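 mean of two retest wells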
MT1-MMP act inh RFP: recorded beside MT1-MMP act inh, whose call it bears; RFP signal change, %; measured here: RFP expression control read;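 0 = vehicle wells; hits needed this value within 50% of zero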
Numbers without * were called inactive; i = inactive; . = no result given.

SMILES	PABP polyA inh	UUG fidelity	eIF4H inh	CSC inhib	Rce1 inh	MT1-MMP act inh	MT1-MMP act inh RFP	HIV Env fusion	others
COc1ccc(COC(=O)Oc2ccc(CNC(C)=O)cc2OC)c([N+](=O)[O-])c1	.	-9.1	.	-10.0	i	-0.1	5.1	-8.2
O=C(c1csc2ccccc12)N1CCN(c2ccccn2)CC1	4.4	0.5	24.4	-6.4	i	4.1	1.8	.
COc1ccc(CCNC(=O)CN(c2cc([N+](=O)[O-])ccc2OC)S(C)(=O)=O)cc1	-4.3	.	-4.9	-8.9	i	-3.1	-2.1	14.4
COc1ccc(C(=O)C2CCCN(C(=O)c3cccc(N(C)C)c3)C2)cc1OC (configuration not stated)	7.1	-7.8	-2.5	4.0	i	0.8	2.4	-2.3
O=C(NCN1C(=O)C2C3C=CC(C3)C2C1=O)Nc1nccs1 (configuration not stated)	-2.8	16.0	-3.6	-14.5	i	3.0	7.2	.
CCOC(=O)C1=C(C)NC(SCC(=O)Nc2nc(C)cs2)=C(C#N)C1c1cccs1 (configuration not stated)	-2.9	.	-8.5	-7.9	i	.	.	30.6
Cn1nnc(NC(=O)C(c2ccccc2)c2ccccc2)n1	-0.4	-12.7	-9.2	-1.4	i	1.4	1.5	21.0
COc1cc(/C=N/NC(=O)c2cc(-c3ccccc3)nc3ccccc23)ccc1O	-1.7	-11.2	3.8	-5.3	i	2.8	3.2	2.9
COc1cccc(-c2nc(N3CCCCC3C)c3ccccc3n2)c1O (configuration not stated)	1.9	-7.6	-6.6	50.0	i	-5.8	-2.7	-4.7
CC(C)(C)NC(=O)NCc1ccco1	-10.9	.	-4.0	-5.6	i	-2.3	1.4	-9.4
CC(C)CC(NC(=O)C1CCC(C)CC1)C(=O)NCc1cccnc1 (configuration not stated)	-5.2	-1.4	-9.0	-3.3	i	0.4	1.3	-34.2
CC(C)(C)Nc1nc(OCC#N)nc(N2CCCCC2)n1	-1.0	.	-0.4	4.9	i	-1.7	-3.7	12.3

In the list so far, 2 contain a cyano group:
SMILES	PABP polyA inh	UUG fidelity	eIF4H inh	CSC inhib	Rce1 inh	MT1-MMP act inh	MT1-MMP act inh RFP	HIV Env fusion	others
CCOC(=O)C1=C(C)NC(SCC(=O)Nc2nc(C)cs2)=C(C#N)C1c1cccs1 (configuration not stated)	-2.9	.	-8.5	-7.9	i	.	.	30.6
CC(C)(C)Nc1nc(OCC#N)nc(N2CCCCC2)n1	-1.0	.	-0.4	4.9	i	-1.7	-3.7	12.3

Later entries:
SMILES	PABP polyA inh	UUG fidelity	eIF4H inh	CSC inhib	Rce1 inh	MT1-MMP act inh	MT1-MMP act inh RFP	HIV Env fusion	others
O=C(Nc1ncc2c(n1)CC(c1cccc(Cl)c1)CC2=O)c1ccco1 (configuration not stated)	0.3	15.5	-2.5	-5.5	i	5.0	0.1	12.8
Cc1ccc(/C=N/n2c(-c3ccncc3)n[nH]c2=S)s1	2.7	.	-4.1	11.4	i	-9.1	-6.7	19.2
CCOc1ccc2[nH]c(=O)c(CN(Cc3ccco3)C(CC)c3nnnn3Cc3ccccc3)cc2c1 (configuration not stated)	55.2	.	-3.8	.	i	-2.2	5.9	.	eIF4H inh retest=6.2;PABP polyA inh retest=11.8
COc1ccc(C(=O)NCCS(=O)(=O)NCc2cccs2)cc1	.	-18.5	.	.	i	0.7	-0.2	-14.7
O=C(c1ccc(Br)o1)N1N=C(c2ccc(Cl)cc2)CC1c1ccco1 (configuration not stated)	10.0	0.3	6.9	8.6	i	-5.1	0.8	-12.6
COCCNC(=O)c1onc(CSc2cc(C)cc(C)c2)c1C(=O)NCCOC	3.7	-2.5	-4.2	-4.3	i	4.4	2.3	3.6
O=C(O)C#Cc1cccc2ccccc12	11.6	.	2.4	-9.9	i	3.0	2.1	-25.0
Cn1c(=O)n(C)c2cc([N+](=O)[O-])c(N3CCN(C(=O)c4ccccc4Cl)CC3)cc21	-2.6	-8.0	-5.9	-3.6	.	1.0	-18.8	89.6*
CC(C)(C)C(=O)COC(=O)c1ccccc1O	-6.4	-18.6	-5.4	-4.6	i	-3.2	-0.9	-11.4
O=C(COC(=O)c1ccc(Cl)c(S(=O)(=O)N2CCc3ccccc3C2)c1)Nc1ncc(Cl)cc1Cl	-9.1	.	-6.1	-11.6	i	-1.6	7.8	17.1
CC(=O)Nc1ccc(NC(=O)C(C)n2c3ccccc3c3nc(=O)cc(C)n32)cc1 (configuration not stated)	-6.3	.	3.8	-4.8	i	-2.1	3.3	-14.6
COc1ccc(CN2C(=O)CNC2=S)cc1	-3.6	-24.7	-12.1	.	i	-4.8	8.3	-17.4
Cc1ccc(Cc2cc(C)n[nH]c2=O)cc1	11.4	-17.8	-1.3	-6.3	i	1.1	6.1	-7.8
Cc1cccc(-c2nsc(SCC(=O)NCc3ccco3)n2)c1	-8.5	.	7.2	-3.0	i	-3.0	-1.3	-90.0
Cn1nc(C(F)(F)F)c(/C=N/OC(=O)c2ccccc2)c1Cl	2.1	9.0	6.6	10.8	i	-1.0	1.7	-12.9
COc1cccc2[nH]c3c(=O)n(CCCN4CCOCC4)cnc3c12	-13.0	-9.3	-2.7	-5.1	i	6.0	6.8	-1.8
COc1ccc(Nc2cc(C(=O)NCc3cccnc3)c3ccccc3n2)c(OC)c1	11.4	.	9.9	-5.8	.	.	.	.
C/C(=N/N=C1\SCC(=O)N1c1ccccc1)c1ccc(C)cc1	3.1	-7.3	11.5	-3.0	i	-0.9	-3.2	-6.0
CCc1c(C)c2ccc(OCC(=O)NCC3CCC(C(=O)O)CC3)cc2oc1=O (configuration not stated)	-13.8	-10.0	3.5	-3.0	i	-0.1	-0.7	.
Cc1c(C)n(CCN(C)C)c2ccc(C(=O)OCCN(C)C)cc12	15.9	-18.7	2.1	38.3	i	4.3	2.5	.
CC(C)[C@H](NC(=O)C1CC(=O)N(c2ccc3c(c2)OCCO3)C1)C(=O)NC1CCCC1 (some centres not stated)	9.3	-12.6	-6.5	-2.0	i	0.4	2.1	-6.3
CN(Cc1cccs1)C(=O)CCc1c[nH]c2ccccc12	22.7	-4.0	-0.9	-8.8	i	6.4	1.2	-15.9
COCCCNC(=O)c1ccc(Cn2c(=O)c3ccccc3n(Cc3ccccc3C#N)c2=O)cc1	0.1	20.4	-4.3	.	i	1.3	2.0	-28.0
CCC(=O)N(Cc1ccc(S(N)(=O)=O)cc1)C1CC(=O)N(c2ccc(OC)cc2)C1=O (configuration not stated)	-10.4	-11.2	-7.7	-7.4	i	2.1	5.1	.

Continued; it opens with the 3 that closed the last part.
SMILES	PABP polyA inh	UUG fidelity	eIF4H inh	CSC inhib	Rce1 inh	MT1-MMP act inh	MT1-MMP act inh RFP	HIV Env fusion	others
CN(Cc1cccs1)C(=O)CCc1c[nH]c2ccccc12	22.7	-4.0	-0.9	-8.8	i	6.4	1.2	-15.9
COCCCNC(=O)c1ccc(Cn2c(=O)c3ccccc3n(Cc3ccccc3C#N)c2=O)cc1	0.1	20.4	-4.3	.	i	1.3	2.0	-28.0
CCC(=O)N(Cc1ccc(S(N)(=O)=O)cc1)C1CC(=O)N(c2ccc(OC)cc2)C1=O (configuration not stated)	-10.4	-11.2	-7.7	-7.4	i	2.1	5.1	.
O=C(Nc1ccccc1N1CCN(C(=O)c2ccc(Cl)cc2)CC1)c1cc2ccccc2o1	-2.5	-18.0	-13.6	11.8	i	-9.8	-6.0	-9.3
C=CCC[C@@H](Cc1ccc(F)cc1)C(=O)OC[C@@H](NC(=O)[C@@H](CC=C)CC(=O)N[C@H](CO)Cc1ccccc1)C(C)(C)C	.	-14.7	.	-4.4	.	-15.4	-21.8	9.3
O=C(NCc1ccccc1)c1cc(C2COCCN2C(=O)c2cccs2)on1 (configuration not stated)	.	-10.8	.	.	.	-1.7	2.2	8.0
CC(C)c1ccc(C2C3=C(CC(C)(C)CC3=O)NC3=C2C(=O)c2ccccc23)cc1 (configuration not stated)	1.9	.	1.4	36.4	i	-23.7	-38.5	.
O=C(Nc1ccccc1)Nc1nnc(CSCc2ccccc2Cl)s1	2.6	-3.6	-14.3	.	i	-3.8	-11.3	-2.6
Cc1cc(NC(=S)NC(=O)c2ccco2)c2ccccc2n1	5.1	.	0.3	-3.3	i	-1.7	-1.2	5.4
CCOc1ccc(NC(=O)CSCC(=O)O)cc1	-0.6	-15.0	5.2	-6.1	i	7.0	-1.0	-8.6
C=CCN1C(=O)NC2(O)C(=O)c3ccccc3C12O (configuration not stated)	-2.8	-15.0	3.8	-14.8	i	3.9	8.7	-12.9
COc1ccc(CCNC(=O)CCC(=O)Nc2ccccc2[N+](=O)[O-])cc1OC	-5.9	-10.9	12.3	0.4	i	-1.4	1.6	-10.7
CC(=O)Nc1cnc(-c2cc(C)c(O)c(C)c2)cn1	.	-7.6	.	.	.	5.0	4.3	-44.0
CC(=O)c1ccc(NC(=O)C2(S(=O)(=O)c3ccccc3)CC2)cc1	10.0	.	2.1	.	i	1.5	6.4	-4.3
O=c1cc(N2CCN(c3ccc(F)cc3)CC2)[nH]c(=O)n1Cc1ccc(F)cc1	1.7	-17.5	-1.4	10.7	i	-5.4	-14.1	-17.0
CCOC(=O)CCc1c(C)n(CC)c2ncnn2c1=O	-22.1	-7.4	-1.4	-4.4	i	-2.0	-1.0	5.0
CC(NC(=O)NC1CCCCC1)C(c1cccs1)N1CCOCC1 (configuration not stated)	3.3	-15.4	2.8	-1.2	i	-0.2	5.4	0.9
NC1=NC2(CCCC2)N=C(Nc2ccccc2)N1	1.8	-17.4	-4.5	-18.1	i	1.2	4.0	3.8
C=CCn1c(SCc2ccc(F)cc2)nc2c1c(=O)[nH]c(=O)n2C	1.2	-8.4	-17.3	-8.3	i	0.5	-1.1	4.7
CN(Cc1ccccc1)C(=O)c1ccc(NC(=O)Cc2ccc(NC(=O)C3CCN(C(=O)C4CCC4)CC3)cc2)cc1	.	-6.1	.	.	.	-0.2	-2.5	-6.6
O=C(Nc1ccc(F)cc1F)c1sccc1SCc1cccc(C(F)(F)F)c1	-11.8	-15.9	-8.7	.	i	-3.4	-2.6	44.6
CN(Cc1ccccc1)C(=O)c1nc2ccccn2c1CNCCOc1cccnc1	-1.8	-18.1	-3.6	-30.8	i	1.3	2.2	1.9
OCCNCCNCc1ccccc1OCc1ccccc1	7.3	-9.7	3.1	-4.7	i	3.6	2.2	14.0
Cc1cc(C(=O)Nc2ccc(F)c(Cl)c2)on1	15.7	.	-8.8	-7.8	i	8.5	5.7	-4.7
CC1CCc2sc3c(c2C1)c1ncnn1c(=O)n3CC(=O)c1ccc(Br)cc1 (configuration not stated)	.	.	.	-9.9	i	-6.2	1.0	.
COc1cccc(N2CCN(c3ccc(N4C(=O)CCC4=O)cc3[N+](=O)[O-])CC2)c1	11.8	-4.6	-11.9	7.8	i	6.3	-2.0	-14.9
O=C(CNC(=O)c1ccccc1)Sc1ccccc1	.	-17.9	.	.	.	-1.5	2.0	-54.6
CCOc1ncccc1C(=O)NCCCSc1ccccc1	-6.5	-3.1	-2.2	2.2	i	-3.8	-3.8	14.5
COc1ccc(S(=O)(=O)N2CCN(Cc3ccc(Cl)cc3)CC2)cc1	12.1	.	-2.4	-7.4	.	5.2	-10.9	.
CCOc1nc(-c2ccncc2)nc2ccccc12	0.1	-9.9	-2.2	16.7	i	-7.3	-2.7	-171.8
COCCNC(=O)CSc1ccccc1C(=O)NC1CCCc2ccccc21 (configuration not stated)	3.9	-10.7	-5.2	-11.4	i	0.4	1.6	14.9
O=C(NCc1cccs1)C1CC(=O)N(c2ccc(Cl)cc2)C1 (configuration not stated)	-6.4	.	-13.8	1.4	i	2.5	2.9	-6.8
COc1cc(-c2csc(N3CCOCC3)n2)cc(OC)c1OC	-2.9	11.9	0.5	4.6	i	4.2	11.4	.
CC(C)CN(C(=O)COc1ccc(Br)cc1C=O)C1CCS(=O)(=O)C1 (configuration not stated)	.	.	.	0.4	i	-12.9	-3.6	-0.4

This is a random part of the collection; about 3% have a hit in one of these screens.
